Screening results: PubChem BioAssay, Fisher Drug Discovery Resource Center
NPYLR7 ag – agonists of mosquito NPYLR7 receptor, primary screen, cell-based, Aedes aegypti, calcium fluorescence, mosquito biting behavior. activation, % at 10 µM. AID 1259423, 2018. HEK293T NPYLR7/Galpha15, GCaMP6s calcium fluorescence. 270,000 compounds, 0.15% hits; in the data active = activation above about 40%;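 note: 0% = vehicle and 100% = reference agonist at the receptor; some compounds past the cut are filed as inactive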
NPYLR7 ag max-min – recorded beside NPYLR7 ag, whose call it bears; activation, %; measured here: Max-Min RFU normalised activation; some inactives read as strong as hits;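 span of the calcium signal over five minutes; 0% = vehicle and 100% = native peptide agonist; compound fluorescence can raise it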
* = called active by the depositor; & = joins results of further samples.

no.	SMILES	NPYLR7 ag	NPYLR7 ag max-min
1	Cc1cnccc1CN(C)Cc1cccc(C(C)(C)C)c1O	12	11
2	CC(CO)CSC1CCN(c2cccc(Cl)c2)C1=O (centres undefined)	4&12	0&5
3	O=C1CCCN1c1ccc(NS(=O)(=O)c2cccc(F)c2)cc1	6	4
4	COc1ccc(CC2CCN(Cc3cc(C)cc(C)c3)CC2)cc1	4	5
5	Cc1ccc(Cn2nnc3c(=O)n(CC(=O)N4CCC(Cc5ccccc5)CC4)cnc32)cc1	4	4
6	CCCc1cc(=O)n(CC(=O)Nc2ccc3c(c2)OCO3)c(-n2nc(C)cc2C)n1	-4	0
7	COCCc1ccc(-c2csc(NC(=O)c3cc(Cl)c[nH]3)n2)cc1	-2	-3
8	CCn1c(C)cc(O)c(C(c2ccncc2)N2CCN(c3ccccc3F)CC2)c1=O (centres undefined)	13	5
9	Nc1nc2ccc(Br)cc2o1	-3	-6
10	Nc1nc(-c2c[nH]c3ccccc23)cs1	2&6	8&3
11	O=C(CN1C(=O)CCC1=O)Nc1c2c(nn1-c1nc3ccccc3s1)CCC2	8	7
12	CS(=O)(=O)CC(NC(=O)C1SCCc2sccc21)c1ccccc1 (centres undefined)	1	1
13	Cc1cccc(C(=O)N2CCC3(CCCO3)CC2)n1	0	1
14	N#Cc1c(-c2ccc(Br)cc2)csc1N1CCCCC1	5	1
15	CN(C)C(CNc1ncccc1C#N)C1CCCCC1 (centres undefined)	11	8
16	CCOC(=O)Cn1c(=O)c2c(nc3n(-c4ccc(F)cc4)c(C)cn23)n(C)c1=O	2	-2
17	CCOCC(C)(C)NC(=O)CC(=O)Nc1cc(C)cc(C)c1	14	9
18	O=S(=O)(c1ccc2nc(CO)[nH]c2c1)c1ccc2nc(CO)[nH]c2c1	5	1
19	C[C@@H]1CN(Cc2ccccc2)CCN1C(=O)NCc1ccccn1	5	2
20	C=CCSc1nnc2c(n1)OC(c1ccc3c(c1)OCO3)Nc1ccccc1-2 (centres undefined)	15	11
21	CCN(CC)Cc1cnc2c(C(=O)N3CCn4cccc4C3C)cnn2c1 (centres undefined)	13	8
22	O=C(O)c1ccc(NNC(=O)C(F)(F)F)nc1	12	9
23	COCCOC(=O)C1=C(C)N(C)C(=O)NC1c1ccc(C(=O)OC)cc1 (centres undefined)	5	0
24	COc1ccc(/C=C2N=C(/C=C/c3ccc(Cl)cc3Cl)OC\2=O)cc1	1	-8
25	COc1ccc(CN2CCN(CCCn3cccn3)CC2CCO)cc1C (centres undefined)	-6	-9
26	Cc1ccc2oc(C(=O)N3CCCN(Cc4cccc(F)c4)CC3)c(C)c2c1	6	4
27	CCCOc1ccc(C(=O)N2CCCCC2C(=O)OCCc2ccc(OC)c(OC)c2)cc1 (centres undefined)	-8	-9
28	Cc1c(C(=O)N2CCN(C(=O)NCc3ccccc3)CC2)cc(-c2ccccc2)n1-c1ccccc1Cl	0	8
29	CCOC(=O)CSc1nc2c(cnn2CCO)c(=O)[nH]1	11	9
30	Cc1cccc(CN(Cc2ccc(C(C)(C)O)o2)CC(C)C)c1	-1	23
31	Cc1cc(C(=O)Nc2cccc(C(N)=O)c2)c(C)n1-c1ccc(C(C)C)cc1	-5	-3
32	COCC(C)n1c(SC(C)C(=O)NC2CCCCC2C)nc2ccccc2c1=O (centres undefined)	-5	-7
33	COc1ccccc1CN1CCn2nc(C(=O)NC3CCCCC3)cc2C1=O	-6	7
34	CCOC(=O)c1ccc(N2CCN(Cc3ccccc3)CC2)c(NC(=O)c2ccc([N+](=O)[O-])o2)c1	0	5
35	C=CCN(CC#Cc1ccccc1)Cc1ccc(O)c(Cl)c1	4	1
36	CC(CC(=O)N1CCC(OCCN2CCCC2)C1)c1ccc(F)cc1 (centres undefined)	-7	-7
37	CCOc1ccc(-c2nc(COC(=O)c3nnn(-c4cccc(SC)c4)c3C)c(C)o2)cc1	8	1
38	CC(C)N1CC23C=CC(O2)C(C(=O)O)C3C1=O (centres undefined)	-2	-3
39	COc1ccc(OCc2cc(C(=O)NCc3ccc(C)c(F)c3)no2)c(Cl)c1	5	2
40	Cc1nc(Nc2ccc(NC(=O)C(C)Oc3ccccc3)cc2)cc(-n2cccn2)n1 (centres undefined)	-7	-12
41	CCc1csc(Cn2ccnc2-c2nc[nH]c2C)n1	21	6
42	C[N+]1(C)CCCC(OC(=O)C(O)(c2ccccc2)c2ccccc2)C1 (centres undefined)	-8&-2&-4	-9&-1&-7
43	c1ccc2c(c1)Cc1cc(CN3CCn4cncc4C3)ccc1-2	9	8
44	COC(=O)c1ccc(N2C(=O)CC(N3CCCCC3)C2=O)cc1 (centres undefined)	3	1
45	CCOC(=O)Cc1nn2c(=O)cc(C)nc2s1	9	4
46	C=CCn1c(=O)c2c(nc3n(-c4ccc(OC)c(Cl)c4)c(C)cn23)n(C)c1=O	2	2
47	Nc1nc(O)c(C2=c3cc(Cl)cc(Cl)c3=NC2=O)s1	7	9
48	O=C(Cc1ccc(F)cc1)N1CCN(C(=O)CN2CCc3sccc3C2c2ccccc2)CC1 (centres undefined)	9	1
49	COc1ccc(CCN(C)C(=O)C(c2ccccc2)C2CCCCC2)cc1OC (centres undefined)	-7	5
50	Cc1ccc(CNC(=O)CCn2c(C)csc2=O)cc1F	11	4

Arranged by heavy-atom count (low to high): some entries from above
no.	SMILES	NPYLR7 ag	NPYLR7 ag max-min
45	CCOC(=O)Cc1nn2c(=O)cc(C)nc2s1	9	4
41	CCc1csc(Cn2ccnc2-c2nc[nH]c2C)n1	21	6
46	C=CCn1c(=O)c2c(nc3n(-c4ccc(OC)c(Cl)c4)c(C)cn23)n(C)c1=O	2	2

(continued)
no.	SMILES	NPYLR7 ag	NPYLR7 ag max-min
51	O=S1(=O)CC(Cl)C(NS(=O)(=O)c2ccc(F)cc2)C1 (centres undefined)	11	9
52	CCN(CC(F)(F)C(F)F)C(C#N)=C(C#N)C#N	2	8
53	NC(=O)c1nn(CC(=O)N(CC2CCCO2)C2CCS(=O)(=O)C2)c(=O)c2ccccc12 (centres undefined)	5	12
54	CC(C)c1ccc(CN(C)Cn2[nH]c(C3CC3)nc2=S)cc1	7	7
55	CCOC(=O)c1cc(C(C)(C)C)n(C2CCN(S(=O)(=O)c3ccc(F)c(F)c3)CC2)n1	10	-1
56	CCOc1ccc(Nc2ncnc3c2nnn3CC)cc1	2	6
57	CCCN(CN1C(=O)NC2(C1=O)C(C)CCCC2C)CC(F)(F)F (centres undefined)	11	9
58	Cc1nc(C)c(Cc2ccc([N+](=O)[O-])cc2)c(N2CCN(C(=O)c3cccc(Cl)c3)CC2)n1	14	13
59	CCCCn1c(N)c(N(Cc2ccco2)C(=O)C2CCCO2)c(=O)[nH]c1=O (centres undefined)	-2	-3
60	Oc1cc2c(cc1CN(Cc1cccs1)C1CC1)OCO2	7	6

Compounds above with a furan ring, fused or not (4):
no.	SMILES	NPYLR7 ag	NPYLR7 ag max-min
26	Cc1ccc2oc(C(=O)N3CCCN(Cc4cccc(F)c4)CC3)c(C)c2c1	6	4
30	Cc1cccc(CN(Cc2ccc(C(C)(C)O)o2)CC(C)C)c1	-1	23
34	CCOC(=O)c1ccc(N2CCN(Cc3ccccc3)CC2)c(NC(=O)c2ccc([N+](=O)[O-])o2)c1	0	5
59	CCCCn1c(N)c(N(Cc2ccco2)C(=O)C2CCCO2)c(=O)[nH]c1=O (centres undefined)	-2	-3

Next section
no.	SMILES	NPYLR7 ag	NPYLR7 ag max-min
61	Cc1ccc(NC(=O)c2cnc(SCC(=O)N3CCOCC3)n(C)c2=O)cc1C	7	-1
62	COCc1ccc(CN2CCC(CO)(CCCc3ccccc3)CC2)o1	-2	10
63	Cc1cc(-c2csc(N)n2)c(C)n1-c1cccc(F)c1	1	7
64	CC(C)NC(=S)Nc1ccc2cn[nH]c2c1	-1	-2
65	Cc1ccc(-c2nc3ccccc3nc2NNC(=O)CCCC(=O)O)cc1	5	5
66	Cc1ccc(C(=O)NCCc2cc3cc(C)c(C)cc3[nH]c2=O)cc1	0	48
67	Cc1ccc(C)c(CN2CCN(c3nc4c(c(=O)[nH]c(=O)n4C)n3CCC(C)C)CC2)c1	-6	2
68	CC(C)Oc1ccc(CNC(=O)N2CCC3CCC(C2)N3C)cc1F (centres undefined)	5	5
69	CN(C)CCN(Cc1cc(NC(=O)CC(C)(C)C)ccc1N(C)C)C(=O)c1cccs1	4	9
70	c1ccc(-n2cc(CNCc3cccs3)c(-c3ccc4c(c3)OCO4)n2)cc1	4	-6
71	COCCN(CC(=O)N1CCc2sccc2C1c1ccccc1)C(=O)c1cccc(Br)c1 (centres undefined)	21	28
72	CCOC(=O)CNC(=O)N(CC(=O)c1c(C)c(C(=O)OCC)n(CC)c1C)C1CC1	-5	2
73	CCCCc1ccc(S(=O)(=O)N2CCN(c3nc4nccc(-c5cccs5)n4n3)CC2)cc1	11	5
74	O=C(NC1CCCCC1)N[C@H]1C[C@H]2C(=O)N3CCC[C@@H]3C(=O)N2C1	-7	-16
75	Cc1cc(C)nc(NCc2nc(-c3cccs3)n[nH]2)n1	6	8
76	C=CCN1CC2(c3ccccc3)CN(CC=C)CC(c3ccccc3)(C1)C2=O	-2	38
77	O=C(Nc1ccccc1Cl)c1ccc(Cl)o1	15	7
78	CCCCCN(CC(=O)Nc1cc(C(C)(C)C)nn1-c1ccc(C)cc1C)C(=O)Nc1ccc(C(F)(F)F)cc1	14	18
79	COc1cc2c(cc1NC(=O)CN1C(=O)CN(C)C1=O)oc1ccccc12	7	1
80	Cc1cc(Nc2ccc(N(C)C)cc2)n2c(nc3ccccc32)c1C#N	7	12

Profiles from above. Order of screens: NPYLR7 ag	NPYLR7 ag max-min
`CCOC(=O)Cc1nn2c(=O)cc(C)nc2s1` reads 9	4
`O=C(NC1CCCCC1)N[C@H]1C[C@H]2C(=O)N3CCC[C@@H]3C(=O)N2C1` reads -7	-16

Carrying on:
no.	SMILES	NPYLR7 ag	NPYLR7 ag max-min
81	O=c1c2c(-c3ccccc3)csc2ncn1Cc1cc(-c2ccc(Cl)cc2)no1	11	0
82	COc1ccc([N+](=O)[O-])cc1CN1CCCn2cccc2C1c1cccc(F)c1 (centres undefined)	0	5
83	O[C@]12CCCC[C@H]1CN(Cc1ccc(-c3ccn[nH]3)o1)CC2	2	-3
84	COc1ccc(-c2nc3cc(C)ccn3c2NC(=O)c2cccc(C(F)(F)F)c2)cc1	-6	-3
85	COc1ccccc1C(=O)N1CCC(C(NC(=O)c2ccc3c(c2)OCO3)C(=O)N2CCOCC2)CC1 (centres undefined)	9	10
86	Cc1cc(COc2ccccc2)oc1C(=O)N1CC(c2ccncc2)C1	7	0
87	Cc1ccc(C2=NC(=Cc3cc(C)ccc3C)C(=O)O2)cc1	6	6
88	CCCCCN(C)c1ccc(F)cc1CNC1CCC(O)CC1 (centres undefined)	12	7
89	Cc1cc(-c2nnc(CCC(=O)N(C)Cc3nc4ccccc4s3)o2)no1	5	3
90	CCOC(=O)[C@@H]1C[C@@H]1c1nc2ccc(C(=O)O)cc2[nH]1	17	12
91	CCOC(=O)c1c(NC(=O)/C=C/c2ccc(C)cc2)sc(C(=O)Nc2ccccc2)c1C	-7	-12
92	Cc1cccc(CSc2nccn(-c3ccc4c(c3)OCCO4)c2=O)c1	-3	-2
93	CCN(CC)C1CCN(C(=O)c2cn(C3CC3)cc(C(=O)NCC3CCCCC3)c2=O)C1 (centres undefined)	13	9
94	CN1OCC(S(=O)(=O)NC(C)(C)C)C1c1ccnc2ccccc12 (centres undefined)	7	3
95	COc1ccc(C)cc1CS(=O)(=O)Cc1cccc(C#N)c1	10	5
96	COc1ccccc1N1CC(C)Cn2c1nc1c2c(=O)n(CC(C)C)c(=O)n1C (centres undefined)	2	0
97	CC(C)c1ccc(NC(=O)c2cc3n(n2)CCN(Cc2ccc(Cl)cc2)C3=O)cc1	2	-3
98	CCn1c(=NC(=O)CS(=O)(=O)c2ccccc2)sc2cccc(OC)c21	2	1
99	CCN(CC)C(=O)Oc1ccc2c(ccn2Cc2c(Cl)cccc2Cl)c1-c1ccc(OC)c(OC)c1	13	21
100	Cc1ccsc1-c1nc2ccc(Cl)cn2c1NC1CCCCC1	23	28
101	CN(Cc1ccccc1)c1cc(Cl)nc(SCc2ccc(C(=O)O)cc2)n1	1	14
102	CCOC(=O)c1nn(-c2ccccc2C)c(=O)cc1NCCOC	3	1
103	CCc1ccc(NC(=O)NCCCn2nc(-c3ccccc3)ccc2=O)cc1	-2	-5
104	Cc1cc(N2C(=O)c3oc4cc(C)c(Cl)cc4c(=O)c3C2c2cccnc2)no1 (centres undefined)	5	0
105	Cc1ccc(C(=O)N(Cc2cccnc2)Cc2nccn2Cc2ccccc2C)cc1	7	15
106	O=C(COc1ccccc1)Nc1cccc(S(=O)(=O)N2CCCCC2)c1	5	1
107	O=C(/C=C/c1cccs1)N(Cc1cccnc1)c1nc2c(F)cccc2s1	-12	-11
108	CCN(C(=S)NCc1ccccc1)C1CCCCC1	-5	-11
109	COc1cc2nc(CSc3nnnn3C3CCCC3)[nH]c(=O)c2cc1OC	2	1
110	CCN(CC)CCN(C(=O)C1=COCCO1)c1nc2ccc(C)cc2s1	-3	-8
111	S=c1[nH]nc(-c2c[nH]c3ccccc23)n1C1CC1	0	-4
112	CCc1cc(CN2CCC(N3CCC(C(=O)N4CCCC4)CC3)CC2)[nH]n1	-2	-5
113	CC(C)Cn1cncc1CNC1CCCNC1 (centres undefined)	11	7
114	OCCC1CN(Cc2cccc(F)c2F)CCN1C1CCCC1 (centres undefined)	2	-4
115	Cc1noc(C)c1CN(C)C(=O)c1ccc(Oc2ccccc2)o1	-1	-3
116	c1ccc2c(c1)CCN(c1nc3cc4c(cc3s1)OCCO4)C2	5	1
117	CCN(Cc1ccncc1)C(=O)c1cc(COc2ccc(OC)cc2Cl)on1	1	1
118	COc1ccc2c(c1)CCN2CC(=O)Nc1ccccc1S(=O)(=O)C(F)F	3	0
119	CSCc1nn(CN(C)Cc2ccc(Br)cc2)c(=S)o1	5	4
120	Cc1ccc(COC2CCCN(C(=O)Nc3ccccc3)C2)cc1 (centres undefined)	-5	-2
121	O=C(NCC1CCCO1)c1cc2n(n1)C(C(F)(F)F)CC(c1cccs1)N2 (centres undefined)	-7	-10

The list is partial; the hit share may differ from the screen's.
